SmPrx2 inh: inhibitors of Schistosoma mansoni peroxiredoxin 2. S. mansoni Prx2 activity coupled to TGR/GSH (TGR is thioredoxin glutathione reductase), NADPH fluorescence loss, qHTS; some inactives read as strong as hits. Potency, µM. 65,000 compounds, 0.07% hits. AID 448; active means full or partial inhibition curve with a strong effect at the top dose; inconclusive means weaker partial or single-point curve; inactive means no accepted curve; further: series up to 57 µM; many of its hits are not listed in these tables
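Purified S. mansoni TGR and Prx2 in pH 7.4 phosphate buffer with EDTA and Tween-20 were preincubated with compounds for 15 min. Further NADPH/GSH was added, then a 2.5 mM H2O2 aliquot initiated turnover, followed kinetically by NADPH fluorescence.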
LT uptake inh: inhibitors of anthrax lethal toxin internalization; Cells, anthrax lethal toxin internalization, FRET ratio (460/530); 70,000 compounds, 0.67% hits; AID 912; Potency, µM (doses to about 40 µM), without a hit: top-dose activity change, negative = inhibition, hits mostly inhibitors; active = well fitted falling ratio curve with the 530 nm signal flat; inconclusive = other ratio curves, or a change in one channel alone; inactive = flat curves in the ratio and both channels; the % refers to the ratio; further: on the % scale 0 is the no-effect control and ±100 the full control effect; nearly all actives have a fitted effect of over 50% in size; tested in ME-180 cells; beta-lactamase reporter
Numbers without * were called inactive; ? = inconclusive; / = no result given; [ ] = another dose, or the depositor's remark. Potency means the concentration at half of the fitted maximal effect. Some of the compounds tested (hit frequency here may not be typical).

SMILES	SmPrx2 inh	LT uptake inh
COc1ccc(-n2nnc3c(=O)n(CC(=O)N4CCCC4)cnc32)cc1	>57	4.0%
CC(NC(=O)c1cccnc1)C(=O)N1CCCCC1 (centres undefined)	>57	18.2%
CCOC(=O)COc1ccc(CCNC(C)=O)cc1	>57	8.6%
CCN(CC)C(=O)N1CCC(NC(=O)Cc2ccccc2)CC1	>57	1.2%
Cc1ccc(CCNC(=O)CCNS(=O)(=O)c2ccc3c(c2)oc(=O)n3C)cc1	>57	-2.6%
CS(=O)(=O)N(Cc1ccc(C(=O)NC2CCCCC2O)cc1)c1ccccc1 (centres undefined)	/	-5.2%
Fc1ccc(-n2cnnn2)c(F)c1	>57	2.2%
CCCCn1c(NC(=O)c2ccc(F)cc2)c(C#N)c2nc3ccccc3nc21	>57	?
CCOc1ccccc1OCC(=O)OCC(=O)Nc1ncc(Cl)cc1Cl	>57	7.0%
Cn1c(C(=O)NCCCN2CCCC2=O)cc2c(=O)n3ccccc3nc21	>57	7.0%
O=C(Cc1c(O)c2ccccc2[nH]c1=O)NCc1cccc(F)c1	>57	?
O=S1(=O)N[C@H]2CC[C@@H]3NS(=O)(=O)N[C@H]4CC[C@H](N1)N4S(=O)(=O)N23	>57	?
COCC(=O)NCc1nc2ccccc2[nH]1	>57	-4.0%
CC=C(Cl)Cl	/	-4.3%
c1ccc2c(c1)C(=Nc1ccc(N=C3c4ccccc4-c4ccccc43)cc1)c1ccccc1-2	>57	-3.7%[8 µM]
CC(=O)OCCN(CCOC(C)=O)c1c(C)[nH]c(=O)[nH]c1=O	/	-3.2%
CCOC(=O)c1cnn(-c2nc(-c3ccccc3)nc3c2COC(C)(C)C3)c1N	>57	-10.6%
CCOC(=O)N1CCC(NC(=O)c2cc(C(=O)Nc3ccc(OCC)cc3)ccc2CO)CC1	>57	10.3%
CN1C[N+]([O-])=C(c2ccccc2)C1(C)C	/	-10.9%
O=C(Cc1c(F)cccc1Cl)N1CCCC1	>57	/
CC[C@@H]1CC(=O)N(SC[C@H](N)C(=O)O)C1=O	>57	-13.0%[8 µM]
CCCOc1ccc2c(C)c(CC(=O)OC)c(=O)oc2c1	>57	/
O=C(CCCc1nc(-c2ccccc2)no1)N1CCOCC1	>57	-4.8%
CN1c2ccccc2C(C)(C)C12CCCC(=O)N2 (centres undefined)	>57	2.6%
CCNc1ncc2nc(-c3cn(C)c4ccccc34)c(=O)n(Cc3cccs3)c2n1	>57	?

A second format for some results above.
> O=C(Cc1c(O)c2ccccc2[nH]c1=O)NCc1cccc(F)c1
  SmPrx2 inh: >57
  LT uptake inh: ?

> O=C(Cc1c(F)cccc1Cl)N1CCCC1
  SmPrx2 inh: >57
  LT uptake inh: /

(more compounds)
SMILES	SmPrx2 inh	LT uptake inh
O=C(CSc1nc(-c2ccc(F)cc2)cc(C(F)(F)F)n1)NCCN1CCOCC1	>57	-2.9%
O=C(Nc1ccc(Cl)cn1)Nc1cccs1	>57	-3.9%
CC(C)(C)C(=O)COC(=O)c1ccc(O)cc1	>57	-1.0%
O=C(NC1CCCCC1)C1CCN(C(=O)NCc2ccccc2)CC1	>57	-1.0%
C=CC(=O)NC(C)C	/	2.2%
c1ccc(Cn2nnc3c(N4CCC5(CC4)OCCO5)ncnc32)cc1	>57	?
Cc1nn(CC(=O)Nc2cccnc2N2CCOCC2)c(=O)c2ccccc12	>57	8.2%
CNC(=O)OC(C)CNS(=O)(=O)c1ccc(C)cc1 (centres undefined)	>57	18.7%
O=C(CSc1nc2ccccc2o1)NC(=O)NCc1ccco1	>57	-13.3%
COc1ccc(OC)c(C(=O)COC(=O)c2ccccc2O)c1	>57	?
CC1CCN(CCNC(=O)c2ccc(NC(=O)C3CCCO3)cc2)CC1 (centres undefined)	>57	-3.7%
COc1ccc(-c2nnc(SCCC(=O)O)n2C)cc1OC	>57	18.9%
O=C(CN1CCC(C(=O)c2ccc3c(c2)OCCO3)CC1)NC1CCCC1	>57	-4.2%
O=C(O)CCc1ccc(-c2cccs2)o1	/	-29.9%
CCCCn1nnnc1NCc1ccc(OC)c(OC)c1	>57	0.2%
C=CCN(CC=C)C(=O)CN1C(=O)c2ccccc2C1=O	>57	5.5%
c1ccc(CSc2nnnn2-c2cccc3ccccc23)nc1	>57	-9.7%
C=C(CC1([C@@H](NP(=O)(c2ccccc2)c2ccccc2)[C@H]2C[C@@H]2CCCC)CC1)c1cccc(OC)c1	>57	-1.7%
CCCc1cc(=O)n2[nH]c(NCc3cccs3)nc2n1	>57	?
O=[N+]([O-])c1ccc2cn[nH]c2c1	/	?
Cc1c(NC(=O)CN2c3cccc4cccc(c34)S2(=O)=O)c(=O)n(-c2ccccc2)n1C	>57	-1.5%
COc1ccc(C2C3=C(CCCC3=O)Nc3nc4ccccc4n32)c(OC)c1OC (centres undefined)	>57	8.8%
O=C(c1cccc(F)c1)N1CCC2(CC1)CN(C(c1ccccc1)c1ccccc1)C2	>57	-0.3%
CC1CCN(C(=O)COc2ccccc2F)CC1	/	5.8%
COc1ccc(C)cc1Cn1c(S(C)(=O)=O)nc2ccccc21	>57	?

Exported with two lines to a compound: entries from further up
Below each compound – SmPrx2 inh | LT uptake inh
CC(C)(C)C(=O)COC(=O)c1ccc(O)cc1
  >57 | -1.0%
O=C(NC1CCCCC1)C1CCN(C(=O)NCc2ccccc2)CC1
  >57 | -1.0%
C=CC(=O)NC(C)C
  / | 2.2%
c1ccc(Cn2nnc3c(N4CCC5(CC4)OCCO5)ncnc32)cc1
  >57 | ?

The list goes on.
SMILES	SmPrx2 inh	LT uptake inh
Cc1cc(C)nc(N2CCN(c3nnnn3-c3ccccc3)CC2)n1	>57	-0.3%
Cn1nc(C(=O)Nc2sccc2C(N)=O)ccc1=O	>57	-5.4%
CCn1ncc(Br)c1C(=O)Nc1sc2c(c1C(=O)OC)CCC2	>57	-3.1%
Nc1nc(SCC(=O)N2CCCc3ccccc32)[nH]c(=O)c1-c1ccccc1	>57	-18.8%
COCCSc1ccccc1C(=O)Nc1nnc(C)s1	>57	-21.1%
COc1cccc(-c2cncnc2N(C)Cc2ccco2)c1	>11.4	?
CCOc1ccccc1Nc1nc2ccccc2[nH]1	>57	1.4%
FC(F)(F)c1ccccc1-c1nc(NCc2cccnc2)c2ccccc2n1	>57	7.6%
COc1cc(C2NCc3ccccc3-n3cccc32)ccc1O (centres undefined)	>57	?
Cc1oc(-c2ccc(Cl)cc2)nc1CN1CCCC(C(=O)N2CCN(C(=O)c3ccco3)CC2)C1 (centres undefined)	>57	-3.6%
O=[N+]([O-])c1cccc(/C=N\Nc2ccc3ccccc3n2)c1O	>57	-9.1%[8 µM]
Cc1nc2cc(C(F)(F)F)ccc2n1C1CCN(Cc2nnnn2Cc2ccc3c(c2)OCO3)CC1	>57	3.3%
O=C(Nc1ccccc1-c1nnn(CC(=O)N2CCCc3ccccc32)n1)c1ccco1	>57	?
COc1ccc2nc(NCCO)[nH]c2c1	>57	0.7%
CSCC[C@H](NC(=O)OC(C)(C)C)c1nnc(SCc2cccc(F)c2)o1	>57	-24.5%
O=C(NC12CC3CC(CC(C3)C1)C2)c1cncc(O)c1	>57	-2.7%
COCCn1nnnc1C(c1cc2c(C)cc(C)cc2[nH]c1=O)N1CCCCCC1 (centres undefined)	>57	8.1%
Cc1ccn(S(=O)(=O)c2ccc(C(C)(C)C)cc2)n1	>57	-17.1%
COc1ccc(Cl)cc1NC(=O)CSc1nnc(-c2ccncc2)n1CC1CCCO1 (centres undefined)	>57	-5.7%
CCOC(=O)CCc1c(C)n(CC)c2cc(-c3ccccc3OC)nn2c1=O	>57	7.4%
CS(=O)(=O)N(CC(=O)NCCSCc1c(F)cccc1Cl)c1ccc2c(c1)OCO2	>57	-19.2%
CN1CCN(CC(O)COc2ccc(OCC(O)CN3CCN(C)CC3)cc2)CC1 (centres undefined)	>57	-4.5%
CC1CN(C(=O)c2ccncc2)CC(C)O1 (centres undefined)	>57	-8.1%
COc1ccc(CN2CCCC2C(=O)Nc2ccc(OC)c(OC)c2)cc1OC (centres undefined)	/	7.7%
NC(=O)C1CCN(C(=O)CCCCCn2c(=O)[nH]c3ccsc3c2=O)CC1	>57	-0.8%
Continued.
SMILES	SmPrx2 inh	LT uptake inh
c1cn2cc(-c3ccc4c(c3)OCO4)nc2s1	>57	12.4%
Cc1c(-c2cccs2)[n+](=O)c2c(n1[O-])CCCCC2	/	4.9%
CCOc1ccccc1NC(=O)N1CCC(n2nnc3cc(C)ccc32)CC1	>57	-2.8%
Cn1c(=O)cc(OCCCC(=O)NCCCN2CCN(Cc3ccccc3)CC2)c2ccccc21	>57	4.4%
COc1ccc(-c2cc(C(F)(F)F)nc(S(=O)(=O)CCC(=O)N3CCOCC3)n2)cc1	>57	?
CCOC(=O)c1sc2nc(SCC#N)n(CCCN3CCCC3=O)c(=O)c2c1C	>57	13.4%
CCSc1n[nH]c(=O)[nH]c1=O	>57	-1.4%
Cc1ccc2nc(-c3ccc4c(c3)OCCO4)cc(C(=O)O)c2c1	>57	?
Nc1nc2c(c(=O)[nH]1)CN(c1ccc(S(N)(=O)=O)cc1)CN2	>57	0.4%[8 µM]
C[N+]1(C)C2CC[C@H]1CC(OC(=O)[C@@H](CO)c1ccccc1)C2 (some centres undefined)	>57	6.3%[8 µM]
CCCC(=O)NC(C)c1nc2ccccc2n1C(C)C (centres undefined)	>57	-10.6%
CCOC(=O)C1=C(C)NC(=O)C(C(N)=O)C12CCCCC2 (centres undefined)	>57	5.5%
CCOC(=O)C1CCCN(c2cc(=O)n(-c3ccccc3Cl)c(=O)[nH]2)C1 (centres undefined)	>57	0.0%
CCOc1ccc(NC(=O)C(C)SC(N)=O)cc1 (centres undefined)	/	-27.9%
CCSCCOC(=O)C1=C(C)NC2=C(C(=O)CCC2)C1c1coc2ccccc2c1=O (centres undefined)	/	5.5%
O=C(Nc1nccs1)c1ccc(COc2ccccc2Br)o1	>57	-20.6%
COc1ccc(N2CCN(C(=O)CSc3nnc4n3C(C)(C)Cc3ccccc3-4)CC2)cc1	>57	-11.6%
Cc1ccc(S(=O)(=O)C2(C(=O)Nc3cccc(F)c3)CC2)cc1	>57	-13.6%
C=CCOc1cccc(C2/C(=C(/O)c3ccc(F)cc3)C(=O)C(=O)N2CCN2CCOCC2)c1 (centres undefined)	>57	0.7%
N#CCCn1c(=O)c(-c2ccc(F)cc2)nc2cnc(N3CCOCC3)nc21	>57	?
COC(=O)c1ccc(NC(=O)CCN2CCCCC2)cc1	>57	-6.8%
CC(C)(C)C(=O)[C@@H]1[C@@H]2C(=O)N(c3ccc4c(c3)OCCO4)C(=O)[C@@H]2C2c3ccccc3C=CN21 (some centres undefined)	>57	1.26µM*
COC(=O)C(C)n1cnc2c(nnn2Cc2ccc(Cl)cc2)c1=O (centres undefined)	>57	-5.1%
CCOCCCNC(=O)C1CCN(S(=O)(=O)c2c(C)noc2/C=C\c2ccc(OC)cc2)CC1	>57	4.4%
COc1cccc(OCC(O)CN2C(C)CCCC2C)c1 (centres undefined)	>57	?
Further records follow:
SMILES	SmPrx2 inh	LT uptake inh
COc1cc2c(cc1OC)C(c1cc3cc(OC)c(OC)cc3[nH]c1=O)N(C(=O)C1CC1)CC2 (centres undefined)	>57	11.9%
CCCCCCNS(=O)(=O)c1ccc(OC)c(OC)c1	>57	-0.1%
CCOc1ccc(C(=O)N2CCC(C(=O)c3ccc4c(c3)OCCO4)CC2)cc1	>57	?
CN1CCc2cc(Cl)c(O)cc2[C@@H](c2ccccc2)C1	>57	?
CC(C)(CCc1nc2ccccc2[nH]1)C(=O)O	>57	2.4%[8 µM]
CN1CCN(CC#CCC(O)(c2ccccc2)C2CCCC2)CC1 (centres undefined)	>57	-9.8%
COCCNc1nc(-c2c(C)noc2C)nc2ccccc12	>57	17.7%
COc1cc2c(c(OC)c1OC)-c1ccc(O)c(=O)cc1[C@@H](NC(C)=O)CC2	>57	?
COc1ccccc1CN1CC[C@@]2(CCCN(C(=O)c3cnccn3)C2)C1	>57	15.1%
Cc1ccc(C2C(C#N)=C(N)Oc3n[nH]c(-c4cccs4)c32)s1 (centres undefined)	>57	-2.7%
Cc1ccc(Nc2nc(=O)c3cccnc3s2)cc1	>57	0.4%
O=c1cc(CO)oc(CN2CCN(c3ccccc3)CC2)c1O	>57	-7.0%
CCn1c2ccccc2c2cc(NC(=O)C3CCN(S(=O)(=O)c4cccs4)CC3)ccc21	>57	-28.5%
Cc1ccc(S(=O)(=O)NCCC(=O)OCn2nnc3ccccc3c2=O)cc1	>57	7.7%
O=C(NCc1ccc2c(c1)OCO2)c1ccc2c(c1)C(=O)N(CC1CCCO1)C2=O (centres undefined)	>57	?
COc1ccccc1-c1noc(-c2ccco2)n1	>57	?
Cc1c(Nc2nc3ccccc3nc2N2CCN(c3ccccc3)CC2)c(=O)n(-c2ccccc2)n1C	/	?
COC(=O)[C@H](NC(=O)c1cc(-c2ccccc2)nc2ccccc12)c1ccccc1	>57	5.01µM*
Cc1ccc(S(=O)(=O)N2CCC(C(=O)N[C@@H](C)C(=O)NC3CCCCC3)CC2)cc1	>57	/

Record cards (already shown). Order of screens: SmPrx2 inh, LT uptake inh
O=C(CSc1nc(-c2ccc(F)cc2)cc(C(F)(F)F)n1)NCCN1CCOCC1 reads >57, -2.9%
COc1ccc(CN2CCCC2C(=O)Nc2ccc(OC)c(OC)c2)cc1OC (centres undefined) reads /, 7.7%
CCOC(=O)c1cnn(-c2nc(-c3ccccc3)nc3c2COC(C)(C)C3)c1N reads >57, -10.6%

High-throughput results from PubChem.
